RE007 growth inh – less growth of the S. pombe RE007 Vpr strain; S. pombe RE007 Vpr strain, BacTiter-Glo ATP luminescence, 24 h; control for the full effect not named in the record; Potency, µM (titrated, usually from 92.2 µM), for inactives: top-dose activity change, negative = less growth; 360,000 compounds, 0.21% hits; active = well fitted falling curve with a large enough effect; inconclusive = small, poorly fitted or top-dose-only effect; inactive = no such curve, though single readings can be large or run the other way;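 further: on the % scale 0 is the no-effect control and ±100 the full control effect; nearly all actives have a fitted effect of over 50% in size; the assay follows cell death caused by Vpr and the record does not say whether a fall means rescue or toxicity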
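Fission yeast RE007 carrying one integrated HIV-1 vpr copy, seeded at OD 0.01 in PMG+AL medium with 23 nL pinned compound. Grown 24 h at 30 degrees; viability read by BacTiter-Glo luminescence after 5 min.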
Marburg entry inh – Marburg virus entry inhibition; Marburg virus pseudotyped entry inhibition, cell reporter; control for the full effect not named in the record; about a third of the inactives were read at about 46 µM; Potency, µM (titrated, usually from 37.8 µM), for inactives: at the top dose activity change, negative = inhibition, hits mostly inhibitors; 300,000 compounds, 1.8% hits; AID 540276; active = well fitted inhibition curve with a large enough effect; inconclusive = small, poorly fitted or top-dose-only effect, or effect the other way; inactive = flat fitted curve, though single readings scatter; tested in HEK293 cells; about a fifth of its hits are not listed in these tables; further: on the % scale 0 is the no-effect control and ±100 the full control effect; luciferase read-out
Cruzain noTriton – inhibitors of Trypanosoma cruzi cruzain without detergent. P25779. purified cruzain, Z-FR-AMC fluorescence, no detergent. Potency, µM, inactives show max response, negative = inhibition, most hits filed as inhibitors. 200,000 compounds, 2.3% hits. AID 1476; active means well fitted curve in the direction sought with a large enough effect; inconclusive means small, poorly fitted or top-dose-only effect, or another doubt; inactive means no such curve, though single readings can be large; an effect the other way counts as inactive or inconclusive;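 further: plate controls were enzyme without inhibitor for no effect and buffer without enzyme for full effect; nearly all actives have a fitted effect of over 40% in size; top concentration of the series not given in the record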
Target sequence (P25779 123-467 limits assumed): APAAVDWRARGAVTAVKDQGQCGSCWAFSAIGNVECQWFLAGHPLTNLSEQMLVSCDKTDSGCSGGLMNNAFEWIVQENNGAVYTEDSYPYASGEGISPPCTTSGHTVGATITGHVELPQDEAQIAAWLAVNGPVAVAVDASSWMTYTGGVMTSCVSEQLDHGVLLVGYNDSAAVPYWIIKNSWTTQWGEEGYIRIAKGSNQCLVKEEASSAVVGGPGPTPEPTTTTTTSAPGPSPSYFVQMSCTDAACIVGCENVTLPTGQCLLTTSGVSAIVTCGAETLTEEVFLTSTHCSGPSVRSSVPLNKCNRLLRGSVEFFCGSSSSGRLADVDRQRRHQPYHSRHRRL
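Detergent-free condition (0.00005% Triton X-100) in acetate buffer pH 5.5 with DTT. 1.5 nM enzyme and compound were pre-mixed 15 min, then 2 uM Z-FR-AMC substrate added; reaction progress from fluorescence change between first and third reads (60 s).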
Cruzain Triton – cruzain (T. cruzi) inhibition with detergent. purified cruzain, Z-FR-AMC fluorescence, 0.01% Triton. P25779. Potency, µM, without a hit: max response, negative = inhibition, actives largely listed as inhibitors. 200,000 compounds, 0.43% hits; active means well fitted curve in the direction sought with a large enough effect; inconclusive means small, poorly fitted or top-dose-only effect, or another doubt; inactive means no such curve, though single readings can be large; an effect the other way counts as inactive or inconclusive;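 further: plate controls were neutral wells for no effect and buffer without enzyme for full effect; nearly all actives have a fitted effect of over 40% in size; top concentration of the series not given in the record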
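Sodium acetate buffer (100 mM, pH 5.5) containing 5 mM DTT and 0.01% Triton X-100 hosted 1.5 nM cruzain and test compound for 15 min at room temperature. Cleavage of 2 uM Z-FR-AMC was then tracked by fluorescence.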
SARS PLP yeast – blocks SARS-CoV papain-like protease in a yeast assay. S. cerevisiae expressing SARS-CoV PLpro, growth rescue; control for the full effect not named in the record. AID 485353. Potency, µM (top dose mostly 32.9 µM), without a hit: at the highest dose activity, positive = growth rescue. 330,000 compounds, 0.19% hits; further: 0% is about no effect; nearly all actives have a fitted effect of over 55% in size; growth read by luminescence after 48 h
2A StopGo – FMDV 2A StopGo reporter, luciferase signal | Potency, µM (doses to about 57.9 µM), without a hit: top-dose signal change, negative = less light | 410,000 compounds, 1.2% hits | human cells with a luciferase reporter of 2A StopGo recoding; control for the full effect not named in the record; active = well fitted falling curve with a large enough effect; inconclusive = small, poorly fitted or top-dose-only effect; inactive = no such curve, though single readings can be large or run the other way; tested in HEK293T cells; further: on the % scale 0 is the no-effect control and ±100 the full control effect; nearly all actives have a fitted effect of over 45% in size; luciferase light after 4 h
Lassa entry inh – Lassa virus entry inhibition; Lassa virus pseudotype entry inhibition, cell reporter; control for the full effect not named in the record; AID 540256; 300,000 compounds, 1.2% hits; Potency, µM (titrated, usually from 37.9 µM), for inactives: top-dose activity change, negative = inhibition, actives largely listed as inhibitors; active means well fitted inhibition curve with a large enough effect; inconclusive means small, poorly fitted or top-dose-only effect, or effect the other way; inactive means flat fitted curve, though single readings scatter; tested in HEK293 cells; further: on the % scale 0 is the no-effect control and ±100 the full control effect; nearly all actives have a fitted effect of over 50% in size; luciferase read-out
NS1 function inh – blocks influenza NS1 protein function; 270,000 compounds, 0.4% hits; Potency, µM (doses to about 46.1 µM), without a hit: at the top dose activity, positive = more growth; AID 2326; S. cerevisiae slowed by influenza A NS1, growth recovery by OD600; further: actives are rising curves; nearly all actives have a fitted effect of over 50% in size
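OD600 was taken as the measure of yeast growth restored by compound in an NS1-expressing S. cerevisiae strain. Cells had been washed out of glucose medium and diluted 1:100 into galactose -URA medium, pH 6.0.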
An asterisk follows results filed as active; ? = inconclusive; · = not tested or not shown; & = joins results of further samples; [ ] = dose if it differs, or a comment. Unless noted, the call rests on the fitted dose curve; in most records, active means well fitted rising curve with a large enough effect; inconclusive means small, poorly fitted or top-dose-only effect; inactive means no such curve, though single readings can be large or run the other way. Potency means the concentration at half of the fitted maximal effect.

nr	SMILES	RE007 growth inh	Marburg entry inh	Cruzain noTriton	Cruzain Triton
1	Nc1c(C2CCCCC2)c(=O)on1C(=O)c1ccccc1	-12.3%	?	·	·
2	O=C(NCCNC(=O)c1cnccn1)c1ccc(Cl)cc1	9.5%	-10.8%[46.1 µM]	·	·
3	Cc1c(Cl)cccc1NC(=O)CN1C(=O)COc2ccc(S(=O)(=O)N3CCOCC3)cc21	·	·	-3.3%	0.2%
4	O=C(OCCN=C1NS(=O)(=O)c2ccccc21)c1ccco1	17.0%	-2.0%	·	·
5	COc1ccc(CCNc2nc(N3CCOCC3)nc(N3CCOCC3)n2)cc1OC	15.6%	0.2%	1.5%	4.7%
6	CC(=O)c1ccc(NC(=O)Cn2c(-n3nc(C)cc3C)nc(C)cc2=O)cc1	·	·	7.6%	-2.7%
7	COc1ccc(CNCC(O)COc2ccc(C(C)(C)c3ccccc3)cc2)cc1 (stereo not drawn)	63.2%	?	·	·
8	O=c1c2ccccc2nc2n1CCCCC2	-7.5%	15.5%	-4.2%	-0.9%
9	CC(=O)C1=C(C)N(CC2CC2)C(=O)N[C@H]1c1ccccc1	8.4%	-32.1%	0.1%&4.6%	3.9%&-3.7%
10	CCOC(=O)c1ccccc1NC(=O)CSc1nnc(Cc2cccn2C)n1-c1ccc(C)cc1	2.7%	-14.8%	15.3%	-8.7%

nr	SARS PLP yeast	2A StopGo	Lassa entry inh	NS1 function inh
1	·	2.1%	0.0%[46.1 µM]	·
2	12.9%	17.5%	25.6%[46.1 µM]	-4.5%
3	·	4.4%	20.6%[46.1 µM]	·
4	6.8%	22.7%	-11.2%	·
5	-0.5%	?	-4.2%	-13.0%
6	·	-2.8%	-11.6%[46.1 µM]	·
7	-0.9%	-26.6%	?	0.2%
8	0.0%	7.4%	-9.7%	-5.9%
9	1.3%	-12.9%	0.7%	-1.0%
10	5.0%	2.6%	-16.5%	-33.1%

Taken from above:
#4 in 2A StopGo: 22.7%
#7 in 2A StopGo: -26.6%

Next part:
nr	SMILES	RE007 growth inh	Marburg entry inh	Cruzain noTriton	Cruzain Triton
11	Cc1ccc(NC(=O)C2CC2c2ccccc2)c([N+](=O)[O-])c1 (stereo not drawn)	11.9%	16.0%[46.1 µM]	·	·
12	O=C(NC(c1ccccc1)c1ccccc1)c1ccc(=O)[nH]n1	24.2%	3.2%[46.1 µM]	·	·
13	CC(C)(C)n1nc2c(c1NC(=O)COc1ccc(F)cc1)CS(=O)(=O)C2	8.2%	-0.1%[46.1 µM]	·	·
14	COc1ccc(OCC(O)CN(CC(O)COc2ccc(OC)cc2)c2cccc(O)c2)cc1 (stereo not drawn)	5.6%	·	·	·
15	Cc1ccccc1CN(c1ccc(C(=O)NCc2cccnc2)cc1)S(C)(=O)=O	5.1%	·	·	·
16	CC1CCCN(C(=O)Cc2cn(Cc3cccc(Cl)c3)c3ccccc23)C1 (stereo not drawn)	3.1%	?	3.0%	-7.8%
17	C=CCN=C(NC#N)SC	14.9%	·	·	·
18	CCCC(=O)C1=C(O)C(C(=O)OC)C(C)(C)CC1=Nc1ccc(C)cc1 (stereo not drawn)	4.7%	·	·	·
19	COc1ccc(NC(=O)CSCc2cc(=O)c3cc(C)ccc3[nH]2)cc1	·	·	5.0%	1.1%
20	CCOCC(=O)N1CCc2ccccc21	-2.0%	?	-8.5%	-1.7%

nr	SARS PLP yeast	2A StopGo	Lassa entry inh	NS1 function inh
11	-0.1%	34.2%[activator]	?	-1.4%
12	-1.0%	-2.6%	0.2%	4.4%
13	1.2%	26.7%	-1.5%[46.1 µM]	-1.7%
14	6.5%	-28.2%	·	19.2%
15	0.0%	-14.8%	·	-1.9%
16	-19.1%	?	-1.3%	-27.6%
17	-0.1%	-9.7%	·	10.9%
18	-2.1%	-24.7%	·	-3.3%
19	·	-5.4%	-0.7%[46.1 µM]	·
20	5.8%	11.6%	3.6%	-0.7%

One compound at a time (already shown). Values in the order: RE007 growth inh, Marburg entry inh, Cruzain noTriton, Cruzain Triton, SARS PLP yeast, 2A StopGo, Lassa entry inh, NS1 function inh
Entry for Cc1ccc(NC(=O)C2CC2c2ccccc2)c([N+](=O)[O-])c1 (stereo not drawn) → 11.9%, 16.0%[46.1 µM], ·, ·, -0.1%, 34.2%[activator], ?, -1.4%
Entry for Cc1ccccc1CN(c1ccc(C(=O)NCc2cccnc2)cc1)S(C)(=O)=O → 5.1%, ·, ·, ·, 0.0%, -14.8%, ·, -1.9%
Entry for CC(=O)C1=C(C)N(CC2CC2)C(=O)N[C@H]1c1ccccc1 → 8.4%, -32.1%, 0.1%&4.6%, 3.9%&-3.7%, 1.3%, -12.9%, 0.7%, -1.0%
Entry for CC(=O)c1ccc(NC(=O)Cn2c(-n3nc(C)cc3C)nc(C)cc2=O)cc1 → ·, ·, 7.6%, -2.7%, ·, -2.8%, -11.6%[46.1 µM], ·
Entry for CCOCC(=O)N1CCc2ccccc21 → -2.0%, ?, -8.5%, -1.7%, 5.8%, 11.6%, 3.6%, -0.7%

For convenience, some entries already given.
nr	SMILES	RE007 growth inh	Marburg entry inh	Cruzain noTriton	Cruzain Triton
11	Cc1ccc(NC(=O)C2CC2c2ccccc2)c([N+](=O)[O-])c1 (stereo not drawn)	11.9%	16.0%[46.1 µM]	·	·
12	O=C(NC(c1ccccc1)c1ccccc1)c1ccc(=O)[nH]n1	24.2%	3.2%[46.1 µM]	·	·
13	CC(C)(C)n1nc2c(c1NC(=O)COc1ccc(F)cc1)CS(=O)(=O)C2	8.2%	-0.1%[46.1 µM]	·	·
14	COc1ccc(OCC(O)CN(CC(O)COc2ccc(OC)cc2)c2cccc(O)c2)cc1 (stereo not drawn)	5.6%	·	·	·
15	Cc1ccccc1CN(c1ccc(C(=O)NCc2cccnc2)cc1)S(C)(=O)=O	5.1%	·	·	·

nr	SARS PLP yeast	2A StopGo	Lassa entry inh	NS1 function inh
11	-0.1%	34.2%[activator]	?	-1.4%
12	-1.0%	-2.6%	0.2%	4.4%
13	1.2%	26.7%	-1.5%[46.1 µM]	-1.7%
14	6.5%	-28.2%	·	19.2%
15	0.0%	-14.8%	·	-1.9%

(next part)
nr	SMILES	RE007 growth inh	Marburg entry inh	Cruzain noTriton	Cruzain Triton
21	O=C(CCC1CCCN(c2ncccn2)C1)N1CCN(c2ccccn2)CC1 (stereo not drawn)	-6.4%	·	·	·
22	CC(C)(C)NC(=O)c1ccc2c(c1)N(CC(=O)N1CCCCC1)C(=O)C(C)(C)O2	7.7%	7.9%[46.1 µM]	·	·
23	Cc1ccc(OC(=O)COc2ccccc2C)cc1	-4.3%	1.9%[46.1 µM]	·	·
24	COC(=O)c1c(NC(=O)CCc2ccc(C)o2)sc(C)c1C	33.8%	-13.7%	-4.8%	-4.8%
25	COc1cccc(-c2nc(CS(=O)CC(=O)NC(C)CCc3ccccc3)c(C)o2)c1 (stereo not drawn)	-6.5%	·	·	·
26	CCOCCCn1c(SCC(=O)N(C)C2CCS(=O)(=O)C2)nc2ccccc2c1=O (stereo not drawn)	80.8%	10.6%[46.1 µM]	·	·
27	CC12CCC(=O)N1C(C(=O)Nc1nccs1)CS2 (stereo not drawn)	-6.7%	-3.7%[46.1 µM]	·	·
28	COc1ccc(Cl)cc1NCc1nnc2n1CCCCC2	·	·	-1.9%	6.7%
29	COC(=O)c1ccccc1NC(=O)C1CC(=O)N(c2ccc(OC)cc2)C1 (stereo not drawn)	-3.7%	?	·	·
30	CCOC(=O)c1ccc(NC(=O)CSc2nc3c([nH]c4ccccc43)c(=O)n2C)cc1	·	·	1.9%	-1.4%
31	Cc1ccc(SCC(=O)N2CCN(S(=O)(=O)c3cccs3)CC2)cc1	0.6%	?	·	·
32	COc1ccc(NC(=O)c2c(C)nn(Cc3ccccc3)c2Cl)cc1S(=O)(=O)N1CCOCC1	1.0%	·	·	·

nr	SARS PLP yeast	2A StopGo	Lassa entry inh	NS1 function inh
21	-0.7%	-23.4%	·	2.9%
22	4.8%	0.4%	4.5%	-1.4%
23	-0.4%	-5.1%	-5.2%[46.1 µM]	-50.1%
24	-17.9%	-10.0%	-7.8%	·
25	?	-17.2%	·	-14.8%
26	-24.7%	6.7%	-17.1%	·
27	-24.2%	2.4%	21.7%	·
28	·	6.1%	12.6%[46.1 µM]	·
29	1.0%	-4.6%	?	·
30	·	2.6%	?	·
31	-0.9%	-17.9%	?	·
32	2.5%	?	·	-9.9%
